Arbovirus anti = arbovirus infection inhibition | arbovirus infection cell-based antiviral screen | inhibition, % at 10 µM | actives 0.37% (n = 200,000) | AID 1251;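 active = inhibition from about 30%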;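 also: bluetongue infection of BSR cells; cell survival read as ATP light after 72 h; 0% = infected wells without compound and 100% = uninfected wells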
RecA intein inh = Mtb RecA intein splicing inhibition; AID 2221; actives 0.75% (n = 290,000); cell-free RecA intein splicing, fluorescence; inhibition, %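 (about 9 µM by stock and volumes)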; P9WHJ3; in the data active = inhibition above about 30%;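 also: 0% = vehicle wells and 100% = reference inhibitor control wells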
Target sequence (P9WHJ3 whole entry, looked up): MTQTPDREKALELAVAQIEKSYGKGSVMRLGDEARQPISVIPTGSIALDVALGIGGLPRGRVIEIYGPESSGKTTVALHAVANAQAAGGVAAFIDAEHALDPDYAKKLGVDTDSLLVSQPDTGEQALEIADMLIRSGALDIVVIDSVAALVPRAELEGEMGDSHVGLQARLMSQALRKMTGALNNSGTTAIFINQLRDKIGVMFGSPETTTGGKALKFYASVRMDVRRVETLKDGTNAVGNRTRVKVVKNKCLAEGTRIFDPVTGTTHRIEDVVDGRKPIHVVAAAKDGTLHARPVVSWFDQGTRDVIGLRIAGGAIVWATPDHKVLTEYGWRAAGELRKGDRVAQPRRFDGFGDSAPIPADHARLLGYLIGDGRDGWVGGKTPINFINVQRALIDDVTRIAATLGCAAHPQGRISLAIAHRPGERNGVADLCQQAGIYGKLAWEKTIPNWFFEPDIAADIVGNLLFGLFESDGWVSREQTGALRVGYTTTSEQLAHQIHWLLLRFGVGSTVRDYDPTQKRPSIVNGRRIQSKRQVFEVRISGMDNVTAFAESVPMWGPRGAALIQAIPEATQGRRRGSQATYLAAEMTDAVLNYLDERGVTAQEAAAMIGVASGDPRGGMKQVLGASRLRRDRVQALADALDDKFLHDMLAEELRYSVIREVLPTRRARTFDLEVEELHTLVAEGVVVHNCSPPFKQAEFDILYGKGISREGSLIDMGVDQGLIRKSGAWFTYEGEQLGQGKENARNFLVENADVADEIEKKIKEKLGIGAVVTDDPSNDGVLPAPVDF
YopH inh = blocks Yersinia enterocolitica YopH tyrosine phosphatase. fluorescence Ex485/Em525. inhibition, %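 (about 10 µM by stock and volumes)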. actives 0.16% (n = 140,000). AID 898;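 active = inhibition of 50% or more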;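 also: controls were vehicle for no effect and minimum signal wells for full effect; inactives centre near -20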
Mtb H37Rv = M. tuberculosis H37Rv growth inhibitors, H37Rv strain (AID 1626). M. tuberculosis H37Rv growth inhibition; higher % means a stronger effect. one-dose inhibition, % at 10 µM; IC50 in µM for titrated hits. actives 0.95% (n = 220,000);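 active = confirmed in a dose series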;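 also: bacteria incubated seven days before Alamar blue readout; 0% = bacteria only wells and 100% = bacteria with antibiotic wells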
Mtb betalactam = beta-lactam sensitization of Mtb H37Rv. AID 434955. inhibition, % at 25 µM. actives 0.27% (n = 330,000). M. tuberculosis H37Rv growth with meropenem, percent inhibition; hits of this screen are not shown here;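 active = about 74% or more and at least 40 points above the plate without the antibiotic, then above 30% in a dose series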;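 also: growth measured after seven days incubation then overnight dye step; 0% = bacteria only wells and 100% = bacteria with antibiotic; twin plates without the antibiotic show which effects depend on it; some results filed as inactive read as strong as hits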
Arbovirus anti repeat = recorded beside Arbovirus anti, whose call it bears; inhibition, %; measured here: 10K subset replicate screen; many hits read low in the repeat;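 first of two repeat runs on a subset; 0% = infected and 100% = uninfected wells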
* marks the source's active call; other numbers are inactive results; nt = not tested or not shown.

SMILES | Arbovirus anti | RecA intein inh | YopH inh | Mtb H37Rv | Mtb betalactam | others
CC(=O)Nc1ccc(SC[C@H](Cc2ccccc2)N2CCN(CCc3ccccc3)CCC2=O)cc1 | nt | -0.6 | nt | 4% | 60
OC(CN1CCN(Cc2ccccc2)CC1)Cn1c2ccccc2c2ccccc21 (configuration not stated) | -32 | 0.9 | -26 | 16µM* | 72
O=C1N[C@@H](Cc2ccccc2)C(=O)N2[C@H]3Nc4ccccc4[C@@]3([C@]34C[C@H]5C(=O)N[C@@H](Cc6ccccc6)C(=O)N5[C@H]3Nc3ccccc34)C[C@@H]12 | nt | 6.8 | nt | 64% | 98
COc1ccc(-n2nc(C(=O)NCC(=O)Nc3ccccn3)c3ccccc3c2=O)cc1 | -8 | -4.4 | -11 | -6% | 3
CCC(CC)C(=O)NCc1ccccc1Cl | 6 | 0.0 | -7 | -6% | -2
Cc1ccc2c(C(=O)CN3CCC(C(N)=O)CC3)c(C)[nH]c2c1 | nt | 1.0 | nt | nt | -4
O=C(OCC(=O)N1CCCc2ccccc21)c1cnc(Cl)c(Cl)c1 | 1 | 6.6 | -15 | 1% | 95
CCCc1ccc(OCc2ccc(C(=O)N3CCCC3)o2)cc1 | nt | 6.7 | nt | nt | 3
Cc1c(Cl)cccc1NS(=O)(=O)c1ccc2c(c1)C1C=CCC1C(c1ccc(C(=O)O)cc1)N2 (configuration not stated) | -4 | nt | nt | -6% | 1
CCCCn1c(CCc2ccccc2)nc2cc3[nH]c(=O)c(C(C)C)nc3cc21 | nt | 7.6 | nt | nt | 99
CN(C)c1ccc(/C=N/NC(=O)c2cccc(N3CCCC3=O)c2)cc1 | 3 | -3.5 | nt | 0% | -1
O=C(c1ccco1)N1CCN(C(=S)Nc2ccc(F)cc2)CC1 | nt | 2.3 | nt | nt | 5
COc1ccc(NC(=O)CSc2nc3ccccc3nc2N2CCCC2)c(OC)c1 | nt | -2.0 | nt | nt | -2
N/C(=N\OC(=O)c1ccncc1)c1cccc([N+](=O)[O-])c1 | nt | -0.3 | nt | nt | 15
COc1ccc(Cl)cc1NC(=O)CSc1ncnc2c1oc1ccccc12 | -10 | 0.2 | -10 | 6% | -4
COc1cc(C(=O)Nc2cc(C(F)(F)F)ccc2Cl)cc(OC)c1OC | 1 | 1.1 | -10 | nt | 0
CC(=O)c1c(C)[nH]c(C(=O)Nc2nc(C)cs2)c1C | -13 | -1.0 | nt | 1% | 4
CC(=O)Nc1ccc(S(=O)(=O)N(C)S(=O)(=O)c2ccc(F)cc2)cc1 | -2 | -0.6 | -34 | 3% | -8
NCCCC[C@H]1CNC(=S)N1CCc1cc(C(F)(F)F)cc(C(F)(F)F)c1 | -8 | 2.9 | nt | -19% | -15
O=C(O)Cc1sc(N/N=C\c2ccncc2)nc1-c1ccccc1 | nt | -4.7 | nt | nt | 67
CN(C)CCNC(=O)Cc1ccc([N+](=O)[O-])cc1 | 6 | -3.3 | -25 | -7% | 2
CCc1ccccc1Nc1nn2c(=O)c3ccc(C(=O)NCc4ccccn4)cc3nc2s1 | nt | -3.0 | nt | nt | 7
CCOc1ccccc1Nc1nnc(SCC(=O)Nc2cc(C)on2)s1 | -5 | -1.2 | -42 | 0% | nt
CCOc1ccc(S(=O)(=O)NCCCN2CCOCC2)c2ccccc12 | 9 | 0.7 | -9 | -1% | -12
CC(=O)c1cnc2nc(C)nn2c1C | 2 | 3.5 | -42 | -5% | 1
O=C(COC(=O)c1ccccc1C(=O)c1ccc(Cl)cc1)NC(c1ccccc1)c1ccccc1 | 0 | -1.4 | 2 | -2% | -2
N=c1c2c(n(Cc3ccc([N+](=O)[O-])cc3)c3c1CCC3)CCCC2 | 4 | -0.7 | nt | 0% | -1
CCCCn1c(=O)c2ccccc2n2c(=S)[nH]nc12 | nt | -0.1 | nt | nt | -8
COc1ccc(C(=O)N/N=C/c2ccc3cccc(OCc4ccccc4)c3n2)cc1 | 14 | -0.4 | -24 | 5% | -4
O=C(c1cc([N+](=O)[O-])ccc1Cl)N1CCN(c2ccc([N+](=O)[O-])cc2)CC1 | -18 | 3.9 | -22 | 11% | -5
CC(=O)c1ccc([C@H]2C[C@@]34CN(C(=O)OC(C)(C)C)S(=O)(=O)[C@H]3C[C@H]2O4)cc1 | nt | -1.9 | nt | 3% | -1
CN1CCN(S(=O)(=O)c2ccc(Oc3ccc(Br)cc3F)nc2)CC1 | nt | -1.7 | nt | nt | -7
O=C(O)CN1C(=O)C(=O)N(Cc2ccccc2F)C1=O | nt | 3.7 | nt | nt | 3
CN(Cc1ccc(F)cc1)S(=O)(=O)c1nnc(NC(=O)c2ccccc2Br)s1 | nt | 2.4 | nt | nt | 0
CNc1ccc(C(O)(C(F)(F)F)C(F)(F)F)cc1C(O)(C(F)(F)F)C(F)(F)F | -26 | 4.5 | -35 | -4% | -2
C#CCOCCOCCOCCNc1nc(N2CCN(C(=O)[C@H](CCCCN)n3cc(CCCC)nn3)CC2)nc(N2CCN(C(=O)[C@H](CCCCN)n3cc(CCCC)nn3)CC2)n1 | -6 | -1.2 | -24 | 4% | 5
NC(=O)CSc1nnc(-c2cc3ccccc3o2)n1Cc1ccccc1 | 8 | -1.4 | 11 | 3% | -6
CCOC(=O)C(C)Sc1nnc(Cc2cc(=O)[nH]c(=O)[nH]2)n1-c1cccc(OC)c1 (configuration not stated) | 7 | nt | -49 | -11% | 0 | Arbovirus anti repeat=1
Cc1ccc2c(C)c(C(=O)NCc3ccc(S(N)(=O)=O)cc3)oc2c1 | -13 | -0.1 | nt | -3% | -8
Cc1cc(C)nc(N2CCCC(C(=O)NCCc3ccc(F)cc3)C2)n1 (configuration not stated) | 0 | -2.7 | 9 | -6% | 2
O=C1CC[C@@H](O)CCN1CC[C@H](Sc1ccccc1)c1ccccc1 | nt | -1.3 | nt | nt | -6
Cc1ccc(OCc2nnc(NC(=O)c3ccco3)s2)c(C)c1 | 3 | 3.0 | -31 | -4% | 2
Cc1cccc(NCC(=O)N/N=C\c2cccn2C)c1 | nt | -1.0 | nt | 3% | -7
Cn1ncc2c(=O)n(CC(=O)NC34CC5CC(CC(C5)C3)C4)cnc21 | 0 | nt | -17 | -10% | 7
Oc1ccc(C(=S)N2CCCCC2)cc1 | 7 | 3.4 | -4 | -1% | -12
COc1ccc(NC(=O)CCNC(=O)Cn2cnc3ccccc3c2=O)c(OC)c1 | 4 | -0.7 | -32 | -8% | -3
O=C(NCCNC(=O)c1ccccc1Cl)c1ccco1 | nt | 2.7 | nt | nt | -5
CCOC(=O)C1(CC2CC2)CCN(Cc2cnc(N(C)C)s2)CC1 | -4 | 1.3 | nt | -2% | -2
CC(=O)c1ccc(NCC2COc3ccccc3O2)c([N+](=O)[O-])c1 (configuration not stated) | 2 | 2.7 | nt | 14% | -1
O=C(Nc1cccnc1N1CCOCC1)c1cccs1 | nt | -0.9 | nt | 3% | -5
(listing goes on)
SMILES | Arbovirus anti | RecA intein inh | YopH inh | Mtb H37Rv | Mtb betalactam | others
CCOc1ccc(-c2[nH]ncc2Oc2ccccc2OCC)c(O)c1 | -5 | 5.6 | -37 | -3% | 8
COc1cccc(OC)c1C(=O)NC(=S)N1CCN(c2ccc(C(F)(F)F)cc2[N+](=O)[O-])CC1 | -9 | 0.7 | -21 | 4% | 72
Cc1cccc(-n2c(CNC(=O)Cc3ccccc3)n[nH]c2=S)c1 | 1 | -3.9 | nt | 4% | -6
CCOC(=O)c1cc(C#N)c(N2CCN(C(=O)c3ccccc3)CC2)nc1C(F)(F)F | nt | -3.2 | nt | 1% | -2
Cn1nc(C(F)(F)F)c2cc(C(=O)Nc3ccc(C(F)(F)F)cc3)sc21 | nt | -2.5 | nt | 75% | 100
COCCCNC(=O)C(=O)NCC(c1ccco1)N1CCN(c2ccc(OC)cc2)CC1 (configuration not stated) | nt | -4.0 | nt | nt | -1
COc1cccc2sc(N3CCN(C(=O)c4ccco4)CC3)nc12 | nt | -3.5 | nt | nt | -6
Cc1ccccc1Cn1nc(C)c(NC(=O)c2cc(-c3cccs3)on2)c1C | -1 | 1.9 | 3 | -1% | -9
CCOC(=O)/C(C#N)=N/Nc1c(C)n(C)n(-c2ccccc2)c1=O | 2 | -8.4 | nt | -8% | 17
CCNc1nc(NCC)nc(SCCOC(=O)c2ccccc2)n1 | 3 | 4.0 | 36 | 10% | -5
CNC(=S)N/N=C/c1cc(C)ccc1C | -2 | -2.3 | nt | 65% | 82
CCn1c(O)c(C=Nc2ccc(N3CCOCC3)c(Br)c2)c(=O)n(CC)c1=S | 2 | -1.4 | -2 | nt | -2
O=C(c1ccc(COc2ccc(Cl)cc2)o1)N1N=C(C(F)F)CC1(O)C(F)F (configuration not stated) | 18 | 5.3 | -32 | -1% | 2
CCOc1ccc(C2C(C(=O)Nc3ccccc3)=C(C)N=c3s/c(=C/c4cccc(OCC(=O)O)c4)c(=O)n32)cc1 (configuration not stated) | 9 | 5.0 | nt | -5% | 7
Nc1cc(N)nc(SCc2cccnc2)n1 | 2 | 0.0 | -6 | -6% | 3
COc1ccc(-c2c(C)oc3c(CN4CCCCC4C)c(O)ccc3c2=O)cc1 (configuration not stated) | nt | -0.6 | nt | nt | -7
COc1ccccc1N1CCN(C(=O)c2cc(-c3ccccc3)on2)CC1 | nt | 1.2 | nt | nt | -2
CCCCCCCCCCCCn1ccc(=N)cc1 | nt | -0.1 | nt | 69% | 15
CCOc1ccc(NC(=O)CC2C(=O)NCCN2C(=O)c2ccc(Cl)cc2)cc1 (configuration not stated) | 11 | nt | nt | -3% | -3
CCc1cc2cc(C)cc(C)c2nc1Cl | 3 | -2.5 | nt | 3% | -2
Cc1cc(/C=C2\SC(=S)N(C)C2=O)c(C)n1-c1ccccc1O | nt | -2.0 | nt | nt | 4
CCn1c(SCC(=O)N2CCN(c3ccc(Cl)cc3)CC2)nc2ccccc2c1=O | 1 | 3.7 | 10 | -5% | -6
CC(NC(=S)Nc1cccc(F)c1)C(c1cccs1)N1CCOCC1 (configuration not stated) | nt | 1.9 | nt | 3% | -1
COc1ccc(C(C[N+](=O)[O-])c2c(C)[nH]n(-c3ccccc3)c2=O)cc1 (configuration not stated) | nt | 95* | nt | nt | 25
COc1ccc(/C=C/C(=O)NC(=S)NCc2ccccc2)cc1OC | nt | -1.6 | nt | -6% | 2
O=C(C1=C[C@@H](c2ccc(C(F)(F)F)cc2)C[C@@H](OCCCCO)O1)N1CCN(Cc2ccc3c(c2)OCO3)CC1 | -18 | 5.0 | nt | 21% | 9
CCOC(=O)N1CCC(NC(=O)c2cc3cc4cc(OC)ccc4nc3o2)CC1 | -2 | 0.5 | -56 | 10% | -1
COc1ccc(/C=C/CN2CCCC(C(=O)c3ccc(OC)c(F)c3)C2)cc1 (configuration not stated) | 11 | 3.8 | nt | 30% | 86
CCOC(=O)C1CCN(C(=O)c2ccc(Cl)c(S(=O)(=O)N3CCCC3)c2)CC1 | nt | -7.2 | nt | nt | -3
c1ccc(-c2cc3ccccc3[nH]2)cc1 | nt | 1.1 | nt | nt | 100
COc1cc(CNCc2cccc(OC)c2OC)cc(OC)c1 | nt | -3.7 | nt | nt | -3

Retrieved one by one from the list above:
SMILES | Arbovirus anti | RecA intein inh | YopH inh | Mtb H37Rv | Mtb betalactam | others
O=C1CC[C@@H](O)CCN1CC[C@H](Sc1ccccc1)c1ccccc1 | nt | -1.3 | nt | nt | -6
Cc1c(Cl)cccc1NS(=O)(=O)c1ccc2c(c1)C1C=CCC1C(c1ccc(C(=O)O)cc1)N2 (configuration not stated) | -4 | nt | nt | -6% | 1

Of the compounds above, 11 contain a furan ring, fused or not.
SMILES | Arbovirus anti | RecA intein inh | YopH inh | Mtb H37Rv | Mtb betalactam | others
CCCc1ccc(OCc2ccc(C(=O)N3CCCC3)o2)cc1 | nt | 6.7 | nt | nt | 3
O=C(c1ccco1)N1CCN(C(=S)Nc2ccc(F)cc2)CC1 | nt | 2.3 | nt | nt | 5
COc1ccc(Cl)cc1NC(=O)CSc1ncnc2c1oc1ccccc12 | -10 | 0.2 | -10 | 6% | -4
NC(=O)CSc1nnc(-c2cc3ccccc3o2)n1Cc1ccccc1 | 8 | -1.4 | 11 | 3% | -6
Cc1ccc2c(C)c(C(=O)NCc3ccc(S(N)(=O)=O)cc3)oc2c1 | -13 | -0.1 | nt | -3% | -8
Cc1ccc(OCc2nnc(NC(=O)c3ccco3)s2)c(C)c1 | 3 | 3.0 | -31 | -4% | 2
O=C(NCCNC(=O)c1ccccc1Cl)c1ccco1 | nt | 2.7 | nt | nt | -5
COCCCNC(=O)C(=O)NCC(c1ccco1)N1CCN(c2ccc(OC)cc2)CC1 (configuration not stated) | nt | -4.0 | nt | nt | -1
COc1cccc2sc(N3CCN(C(=O)c4ccco4)CC3)nc12 | nt | -3.5 | nt | nt | -6
O=C(c1ccc(COc2ccc(Cl)cc2)o1)N1N=C(C(F)F)CC1(O)C(F)F (configuration not stated) | 18 | 5.3 | -32 | -1% | 2
CCOC(=O)N1CCC(NC(=O)c2cc3cc4cc(OC)ccc4nc3o2)CC1 | -2 | 0.5 | -56 | 10% | -1

Some of the compounds tested. The share of hits here may be higher or lower than overall.
